HCMV NEC inh – inhibitors of HCMV UL50-UL53 nuclear egress complex interaction | HTRF UL50-UL53 interaction, normalized percent inhibition | inhibition, % (no concentration beside the values) | 190,000 compounds, 0.15% hits | AID 1918969;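 active means both replicates at 50% or more, plus weaker picks with an unusually low signal ratio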;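 further: stock transfer was 100 nL into about 20 µL; 0% = negative control wells and 100% = wells with untagged competitor protein; inactives centre near -12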
GIV-Gai inh – blocks GIV peptide binding to rat Galpha-i3 | Galpha-i3/FITC-GIV peptide fluorescence polarization, 90 min; stronger effect = lower value; scaled: aluminum fluoride 0%, vehicle 100% | percent of control (FP), % (test concentration not listed) | 210,000 compounds, 0.42% hits | AID 1224905;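 active means replicate mean at 85% of control or lower, very high polarization wells dropped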;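 further: wells of about 15 µL received 100 nL stock; the first replicate is given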
Target sequence (P08753 whole entry, looked up): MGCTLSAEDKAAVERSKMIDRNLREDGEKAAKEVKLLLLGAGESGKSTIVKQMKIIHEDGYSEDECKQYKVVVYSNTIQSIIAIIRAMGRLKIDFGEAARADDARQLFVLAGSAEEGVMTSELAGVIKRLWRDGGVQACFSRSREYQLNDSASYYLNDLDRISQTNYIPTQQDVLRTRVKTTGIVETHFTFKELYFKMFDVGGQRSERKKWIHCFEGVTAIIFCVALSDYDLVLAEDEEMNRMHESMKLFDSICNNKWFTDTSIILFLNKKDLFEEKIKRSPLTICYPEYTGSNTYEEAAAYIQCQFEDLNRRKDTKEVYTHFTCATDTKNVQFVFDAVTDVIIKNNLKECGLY
Sa growth inh – inhibitors of Staphylococcus aureus growth at 42 °C; S. aureus RN4220 growth, OD600, 20 h; stronger effect = lower value; relative growth, % (concentration not given with the values); 170,000 compounds, 0.53% hits;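 active means growth at 42 °C up to 50% and 20 or more points under that at 30 °C, or under 10% at both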;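 further: 300 nL library stock went into each well; scaled to the means of positive and negative controls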
Sa growth inh second temp – also measured in Sa growth inh; calls as there; relative growth, %; measured here: growth at 30 °C;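 optical density after 20 h as mean of two plates; 100% = untreated growth and lower means inhibition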
Numbers without * were called inactive; nt = no result given; & = joins results of further samples.

SMILES	HCMV NEC inh	GIV-Gai inh	Sa growth inh	Sa growth inh second temp
COc1cc(-c2nc3ccc(C)cn3c2Nc2ccc(Cl)cc2)ccc1O	0	103	107	92
CCOc1cccc2sc(N3CCN(C(=O)c4ccc5c(c4)CCCC5)CC3)nc12	nt	97	105	73
CCOC(=O)C1=C(C)N=c2s/c(=C\c3ccccc3OC(C)=O)c(=O)n2C1c1ccc(OC(C)=O)cc1 (configuration not stated)	-18	108	nt	nt
CC1CCCC(C)N1C(=S)NCCCN1CCOCC1 (configuration not stated)	-10	105	90	79
COc1ccc(-c2noc(CNC(=O)c3ccc(OC)cc3OC)n2)cc1	-16	104	114	88
O=C(NC1(O)C(=O)c2ccccc2C1=O)c1ccc(C(F)(F)F)cc1	58*	56*	90	95
COc1cc(NC(=O)COCc2cc(-c3ccc(F)cc3)on2)c(OC)cc1Cl	1	103	96	90
Cc1nc2cc(-c3noc(Cc4ccccc4Br)n3)ccc2n(C)c1=O	-3	109	nt	nt
Cc1ccc(NC(=O)c2ccc(CN3CC(=O)N4CCCCC4C3=O)cc2)c(C)c1 (configuration not stated)	nt	110	121	100
Cc1c(/C=C2/N=C(c3ccccc3)OC2=O)cc(C#N)n1C	-14	nt	99	95
O=C(COC(=O)c1cc2ccccc2cc1O)c1ccc(OCc2ccccc2)cc1	nt	102	97	100
Cc1ccccc1Cn1cnc2oc(C)c(C)c2c1=O	-2	104	nt	nt
Cc1ccc(N(C)S(=O)(=O)c2cc3[nH]c(=O)c(=O)[nH]c3cc2C)cc1	3	103	100	92
O=C1CC(c2ccc(Cl)cc2)n2ncnc2N1 (configuration not stated)	nt	102	104	81
CC(=O)N1c2ccc(S(=O)(=O)N3CCCC3)cc2CC1C(=O)N1CCN(c2ccccn2)CC1 (configuration not stated)	-13	107	nt	nt
CCC(C(=O)NCc1ccco1)n1c(SCc2ccc(F)cc2)nc2cccnc21 (configuration not stated)	nt	103	100	70
O=C(Nc1ccccc1)OC1C2CCCC1C(N1CCCCC1)CC2 (configuration not stated)	-3	nt	78	106
COc1ccccc1NC(=O)N1C(C(=O)NCc2ccc(F)cc2)CSC1c1ccccc1C (configuration not stated)	nt	102	100	84
C=CCn1c(SCc2nnc(SCC(=O)c3ccc(Cl)cc3)o2)nnc1-c1ccccc1	-26	101	84	36
COc1ccc(N2C(=O)/C(=C/c3cccn3-c3ccc(Cl)cc3)C(=O)NC2=S)cc1	-4	107	nt	nt
Cc1nc2sc3ccccc3n2c(=O)c1S(=O)(=O)Nc1ccc(Cl)cc1	-39	104	nt	nt
O=C(Nc1ccc(F)cc1Cl)c1nc(Nc2ccccc2)c2ccccc2n1	-13	98	nt	nt
O=C(Nc1nccs1)C1CC2CCCC(C1)C2=O (configuration not stated)	13	nt	115	100
COc1ccc(N2CCCCn3c2nc2c3c(=O)n(C)c(=O)n2C)cc1	10	100	nt	nt
CC(Nc1ccc(-n2cnnn2)cc1)C(=O)N1CCN(Cc2ccccc2)CC1 (configuration not stated)	5	nt	91	93
CN(C)C(=O)COC(=O)C1c2ccccc2Oc2ccccc21	-32	nt	100	78
CC1=C(C)CC(C(=O)NCc2ccccn2)C(C(=O)O)C1 (configuration not stated)	-3	107	106	98
Cc1ccc(NC(=O)C2CCN(S(=O)(=O)c3ccc4[nH]c5c(c4c3)CCCCC5)CC2)nc1	-11	100	nt	nt
Cc1cc2c(N=NC(=O)C3CC34CCC4)c(O)[nH]c2cc1Br (configuration not stated)	-7	101	99	78
Cc1cccc(NC(=O)c2cc3c(=O)n4ccccc4nc3s2)c1	-39	99&104	92	98
Cc1c(CC(=O)N2CCCCC2)c(=O)oc2c(C)c(O)ccc12	-40	95	103	88
Cc1ccc(S(=O)(=O)N2CC(=O)CCc3ccccc32)cc1	-7	nt	114	100
CCOc1ccc(CNC(=O)Nc2ccc3c(c2)N(C)C(=O)c2ccccc2S3)cc1	4	96	110	99
Cc1ccc(-c2cn3nc(N4CCCC(C(=O)NCc5ccccc5F)C4)sc3n2)cc1 (configuration not stated)	nt	101	111	92
Cc1cc(=O)oc2cc(NC(=O)CC3(CC(=O)O)CCCC3)ccc12	-26	105	98	87
COCCN(CCOC)S(=O)(=O)c1ccc(C(=O)Nc2nc3ccc4sc(C)nc4c3s2)cc1	-14	105	nt	nt
COCCNC(=O)Cn1c(=O)n(CCCCCC(=O)NCc2ccccc2Cl)c(=O)c2sccc21	9	101	113	96
CCCN1CCN(c2ncnc3sc(C(=O)N4CCOCC4)c(C)c23)CC1	4	108	nt	nt
Cc1ccc(-n2nc(C)c3c(C(=O)NC4CCCC4)cc(C)nc32)cc1	-22	106	110	88
CC(C)NC(=O)c1cc2ccccc2c(=O)s1	-99	108	nt	nt
O=C(Cn1ncc2c(=O)oc3ccccc3c21)NCCCN1CCCCCC1	-1	91	nt	nt
COc1ccccc1Cn1c(CNS(=O)(=O)c2ccc(C(C)C)cc2)nc2cccnc21	nt	107	86	81
CCOc1ccccc1NC(=O)CSc1ncc2c(n1)-c1ccccc1N(CC)S2(=O)=O	nt	100	109	76
Cc1nn(-c2ccccc2)c2c1N(C(=O)CCC(=O)NCCc1c[nH]c3ccccc13)CCS2	-10	107	nt	nt
Cc1cc(C)cc(N=C2NC(=O)/C(=C/c3ccc([N+](=O)[O-])c(O)c3)S2)c1	-46	108	nt	nt
O=c1cc[nH]c2ccc(OC(F)(F)F)cc12	-6	97	88	77
NS(=O)(=O)c1ccc(C(=O)Nc2cccc(-c3ccc4nncn4n3)c2)cc1	-32	105	96	85
Cc1nc2sc(C(c3ccc(Cl)c(Cl)c3)N3CCCC3)c(O)n2n1 (configuration not stated)	-36	104	96	78
CCN(Cc1ccc2c(c1)OCCO2)C(=O)c1ccccc1C(=O)N(C)C1CCCCC1	-29	nt	87	87
CCN1C(C(=O)c2ccccc2)=C(OC(=O)c2ccc(OC)cc2)c2ccccc2S1(=O)=O	-23	106	77	86
COc1ccc(N=C2SC(C(N)=O)CC(=O)N2Cc2ccccc2)cc1 (configuration not stated)	-8	106	101	91
CC(C)(C)C(=O)N1c2ccccc2CCc2ccccc21	-7	108	107	110
COc1ccc(N(C)C(=O)C2COc3ccccc3O2)cc1 (configuration not stated)	-12	nt	90	83
O=C(Nc1ccc(C(F)(F)F)cc1)C1=NCCN1	-5	97	55	92
O=C(Cc1ccccc1)N1CCN(c2nc3ncccc3o2)CC1	-13	105	nt	nt
O=C1CC(c2ccc3c(c2)OCO3)c2c(c3ccccc3n(-c3ccccc3)c2=O)O1 (configuration not stated)	nt	104	120	95
CNC(=O)Cc1sc2ccc(Cl)cc2c1C	-9	103	90	92
Cc1ccc2[nH]c3c(=O)n(C(C)c4ccccc4)cnc3c2c1 (configuration not stated)	-1	105	nt	nt
NC(=O)CCNCc1ccccc1	nt	96	87	82
O=C1NC(=O)N(c2cccc(Cl)c2)C(=O)/C1=C/c1cc(Br)c(N2CCOCC2)o1	-17	191	nt	nt
The list continues:
SMILES	HCMV NEC inh	GIV-Gai inh	Sa growth inh	Sa growth inh second temp
Cc1cc(C(=O)COC(=O)c2ccc(NC(=O)CC#N)cc2)c(C)n1-c1ccc2c(c1)OCCO2	-14	nt	110	94
CC(=O)Nc1ccc(NC(=O)C(C)OC(=O)c2c(F)cccc2F)cc1 (configuration not stated)	19	nt	95	94
COc1ccc(F)cc1S(=O)(=O)Nc1cccc(N2CCCS2(=O)=O)c1	-15	98	nt	nt
COc1ccc(CCNC(=O)Nc2ccccc2C)cc1OC	0	110	99	95
C/C(=N\OCC(=O)Nn1c(=O)[nH]c2ccccc2c1=O)c1ccccc1	-16	108	97	89
Cc1nc2scc(C)n2c(=O)c1S(=O)(=O)Nc1cccc(O)c1	-12	108	111	92
CC(=O)N1CCc2ccccc2C1CN=CC1=C(O)CC(c2ccco2)CC1=O (configuration not stated)	1	nt	104	84
COc1ccc(C(=O)Nn2cnnc2)cc1	-10	97	nt	nt
Nc1ccccc1-c1nnn(CC(=O)NC2CCCC2)n1	-17	94	89	84
COc1cc(-c2noc(C3CC(=O)N(c4cc(C)ccc4C)C3)n2)cc(OC)c1OC (configuration not stated)	nt	91	83	87
CN(C)S(=O)(=O)Cc1ccccc1Cl	-40	106	117	102
N#Cc1c(Cl)cccc1Oc1ccc(S(=O)(=O)N2CCC(O)CC2)cc1	-15	97	109	74
Cc1ccc(C(=O)N2c3nc(-c4ccco4)nn3C3(CCCCC3)[C@@H]3CCCC[C@@H]32)cc1	-9	100	89	82
Oc1c(Cl)cc(Cl)cc1C=Nc1ccc2n[nH]nc2c1	-17	104	85	81
O=C(NCc1ccco1)c1cc(F)cc2c1OCOC2	-50	106	88	89
Cn1c(=O)c2c(nc(N3CCNCC3)n2C)n(C)c1=O	2	105	95	88
Cc1ccc(C(=O)CSc2nnc3[nH]c(=O)c(C)nn23)cc1	3	99	93	87
Cc1cc(-c2ccc(C)c(S(=O)(=O)N(C)C3CCCCC3)c2)on1	7	97	100	102
O=C(N/C=C/n1cnc2cc(C(F)(F)F)ccc21)c1ccco1	-28	nt	104	82
OC(CNCc1cccs1)c1ccccc1 (configuration not stated)	-5	102	116	94
CC(Oc1ccc(/C=C2\C(=O)NC(=S)N(c3cccc(Br)c3)C2=O)cc1)C(=O)O (configuration not stated)	10	110	nt	nt
COC(=O)c1ncn2c1C(=O)N(c1ccc3c(c1)OCCO3)C(C)(C(=O)NC1CCCC1)C2 (configuration not stated)	6	103	nt	nt
Cn1c(=O)c(=O)[nH]c2cc(-c3noc(-c4ccc(C(C)(C)C)cc4)n3)ccc21	4	112	nt	nt
CC(=O)N1CCc2cc(S(=O)(=O)NC(Cc3ccccc3)C(=O)NCc3ccc(C)cc3)ccc21 (configuration not stated)	-15	105	112	88
CCOc1ccc(NC(=O)C(CC)n2nc(C)c3c(C)n(-c4ccccc4)nc3c2=O)cc1 (configuration not stated)	nt	99	78	81
COc1cccc2c1OC1(CCCCC1)N1N=C(c3ccco3)CC21 (configuration not stated)	nt	101	90	78
CCCn1c(=O)c2ccc(C(=O)NC(C)C)cc2n2c(=O)n(CC(=O)c3ccccc3)nc12	12	103	nt	nt
O=C(Cc1nnc(-c2ccc(Br)cc2)o1)NCCc1ccccc1	-18	109	113	85
NNC(=O)CC1=NNC(=O)C1	-4	nt	104	94
CCOC(=O)C1=C(C)NC2=C(C(=O)CC(c3ccc(Cl)cc3)C2)C1c1cc(OC)c(OC)c(OC)c1 (configuration not stated)	-38	94	nt	nt
CCc1ccc(NC(=O)CC2C(=O)N(c3cccc(OC)c3)C(=O)N2Cc2ccco2)cc1 (configuration not stated)	nt	106	106	88
Cc1cc(C)n2cc(CSC(C)C(=O)O)nc2n1 (configuration not stated)	4	nt	99	90
C=C1CC[C@H](O)C/C1=C/C=C1\CCC[C@]2(C)[C@@H]([C@H](C)CCCC(C)(C)O)CC[C@@H]12	-42&-18	101	94	95
CC(=O)O[C@]1(C(=O)CO)CCC2C3CCC4=CC(=O)CCC4(C)C3C(O)CC21C (some centres not stated)	-32	101	108	83
c1cnc2c(OCc3nc4ccccc4[nH]3)cccc2c1	-26	104	121	77
COc1ccccc1NC(=S)NC(c1ccccc1)c1ccccc1	-20	102	87	80
CCc1ccc(-n2c(=O)c3sc4ccccc4c3n(Cc3cccc(F)c3)c2=O)cc1	-12	107	103	84
Cc1cccn2c(=O)cc(COc3ccc(NC(=O)C(C)Oc4ccccc4)cc3)nc12 (configuration not stated)	nt	102	83	86
O=C(COc1ccc(Cl)cc1)N(Cc1ccco1)Cc1ccco1	-31	100	114	77
Cc1ccc2c(c1C)-n1cccc1C1(CCN(C(=O)Cc3ccc(Cl)cc3)CC1)N2	-12	105	nt	nt
Cc1ccccc1NC(=O)C1c2ccccc2C(=O)N2CCc3ccccc3C12 (configuration not stated)	8	98	93	101
Cc1c(Cl)cccc1-n1ncc(C(=O)NC2CCCCC2)c1C1CCN(C(=O)OC(C)(C)C)CC1	nt	105	89	88
